# gsp ag: activates gsp, the McCune-Albright syndrome mutation; gsp mutant cells, cAMP HTRF, 30 min; control for the full effect not named in the record; Potency, µM (titrated, usually from 76.9 µM), for the others: at the highest dose activation (cAMP increase), most hits filed as activators; 340,000 compounds, 0.13% hits; active = well fitted activation curve with a large enough effect; inconclusive = small, poorly fitted or top-dose-only effect, or another doubt; inactive = no such curve, though single readings can be large or run the other way; cell line not stated here;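 also: phosphodiesterase inhibitor Ro 20-1724 added with compounds to block cAMP breakdown; potency is read from the fitted curve at half-maximal effect; nearly all actives have a fitted effect of over 60% in size; about a fifth of the inactives were tested at one dose only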
#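 Cells stably selected in G418 were plated at 2000/well, grown 16-24 hr, then given compounds in DMSO with the PDE inhibitor […] (300 uM solution added) for 30 min at 37C; cAMP was read by HTRF.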
# ClpP mod: qHTS Assay for Activators of ClpP; ATP-dependent Clp protease proteolytic subunit (Bacillus subtilis (strain 168)), P80244; purified B. subtilis ClpP, FRET peptide cleavage, 20 min; AID 651965, 2013; Potency, µM (highest dose often 57.5 µM), inactives show at the top dose activity change, negative = active; 340,000 compounds, 1.9% hits; active = well fitted falling curve with a large enough effect; inconclusive = small, poorly fitted or top-dose-only effect; inactive = no such curve, though single readings can be large or run the other way; also: potency is read from the fitted curve at half-maximal effect; the source files actives as falling curves though it sought activators and does not explain the sign; nearly all actives have a fitted effect of over 65% in size; many hits overshoot -100%
# Target sequence (P80244 whole entry, looked up): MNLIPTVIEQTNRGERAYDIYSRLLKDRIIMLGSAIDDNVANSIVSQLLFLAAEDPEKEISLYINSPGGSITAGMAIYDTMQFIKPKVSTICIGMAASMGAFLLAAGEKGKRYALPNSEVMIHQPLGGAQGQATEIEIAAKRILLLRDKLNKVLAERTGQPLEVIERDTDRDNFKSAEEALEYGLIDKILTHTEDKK
#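 Purified B. subtilis ClpP, 10 microg/mL final in Tris/HCl pH8 with KCl, BSA, glycerol and Tween-20, cleaved an Abz/nitrotyrosine-quenched decapeptide. Fluorescence (ex 320, em 430) was read at 0 and 20 min at room temperature. Delta was normalized to 5.8 microM ADEP and DMSO/no-enzyme controls.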
# TRPV1 potentiator: human TRPV1 potentiation; Q8NER1; TRPV1-expressing cells, Fluo-8 calcium influx, capsaicin EC20 potentiation; host cell line not named in the record; control for the full effect not named in the record; potentiation, % at 8.33 µM; 320,000 compounds, 0.02% hits; AID 540277; active means potentiation above 80%; inconclusive means 30% to 80%; inactive means below 30%; also: 0% is about no effect
# Target sequence (Q8NER1 whole entry, looked up): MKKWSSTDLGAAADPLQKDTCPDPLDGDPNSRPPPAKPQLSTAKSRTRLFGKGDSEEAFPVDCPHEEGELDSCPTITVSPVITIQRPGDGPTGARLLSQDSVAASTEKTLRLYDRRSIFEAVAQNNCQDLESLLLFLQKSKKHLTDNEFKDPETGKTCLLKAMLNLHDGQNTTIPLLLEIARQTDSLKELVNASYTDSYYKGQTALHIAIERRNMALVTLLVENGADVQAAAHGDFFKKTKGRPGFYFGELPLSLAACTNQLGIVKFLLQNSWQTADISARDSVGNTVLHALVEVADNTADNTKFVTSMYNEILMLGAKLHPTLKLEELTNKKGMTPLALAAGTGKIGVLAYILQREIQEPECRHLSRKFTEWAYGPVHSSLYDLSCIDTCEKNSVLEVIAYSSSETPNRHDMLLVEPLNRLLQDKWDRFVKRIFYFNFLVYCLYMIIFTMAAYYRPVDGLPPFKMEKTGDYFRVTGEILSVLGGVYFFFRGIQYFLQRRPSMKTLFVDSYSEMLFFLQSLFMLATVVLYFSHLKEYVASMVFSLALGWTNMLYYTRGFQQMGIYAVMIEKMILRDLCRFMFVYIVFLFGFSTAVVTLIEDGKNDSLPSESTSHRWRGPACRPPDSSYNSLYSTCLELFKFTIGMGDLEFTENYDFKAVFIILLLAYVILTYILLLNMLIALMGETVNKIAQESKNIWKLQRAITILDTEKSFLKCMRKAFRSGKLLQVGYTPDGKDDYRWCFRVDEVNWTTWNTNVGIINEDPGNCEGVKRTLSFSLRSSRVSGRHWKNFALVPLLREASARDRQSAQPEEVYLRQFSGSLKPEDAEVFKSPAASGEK
#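 Fluo-8 calcium influx in TRPV1-expressing cells, kinetic read (ex 480/em 520 nm). Compound added and read 3 min for agonist activity, followed by capsaicin at EC20 final and 2 min further read for enhancement.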
# gsp antag: antagonists of gsp mutant (McCune-Albright syndrome); gsp-mutant cells, cAMP HTRF, 30 min; control for the full effect not named in the record; Potency, µM (doses to about 76.9 µM), inactives show top-dose activity change, negative = inhibition, usual class: inhibitors; 340,000 compounds, 0.4% hits; AID 624288; active = falling curve of any shape with a large fitted effect; inconclusive = falling curve, mostly with a smaller effect; inactive = flat or rising curve; cell line not stated here;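 also: intracellular cAMP measured with PDE inhibitor Ro 20-1724 present during compound exposure; potency is read from the fitted curve at half-maximal effect; % is scaled to controls: 0 for no effect and ±100 for the full control effect; nearly all actives have a fitted effect of over 65% in size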
#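 Cells in G418 medium, seeded 16-24 h, 37C; buffer exchange to DPBS + 1 mM CaCl2, 0.5 mM MgCl2, 0.05% BSA; cpds in DMSO + […] (300 uM stock), 30 min 37C; HTRF cAMP detection.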
# Menin MLL FP FL: menin-MLL binding inhibition, fluorescein peptide | Fluorescence polarization, fluorescein-MLL peptide displacement from menin | FP activity change, % at 61.4 µM | 290,000 tested, under 10 active; inconclusive = falling polarisation curve, or a change in total fluorescence; inactive = total fluorescence flat and polarisation flat or rising; no compound was filed as active; the % refers to the polarisation; negative = inhibition;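 also: % of control where 0% means no effect; inhibitors lower the polarisation; unlabelled MLL peptide was the positive control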
# Sfp inh: blocks B. subtilis Sfp PPTase activity; Biochemical Sfp PPTase activity, qHTS; Potency, µM, without a hit: max response, negative = inhibition, most hits filed as inhibitors; 310,000 compounds, 3.5% hits; active = well fitted inhibition curve with a large enough effect; inconclusive = small, poorly fitted or top-dose-only effect, or another doubt; inactive = no such curve, though single readings can be large or run the other way;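 also: the enzyme is Sfp with the accession as filed and its product quenches rhodamine fluorescence; potency is read from the fitted curve at half-maximal effect; 0% = enzyme reaction without inhibitor and -100% = no enzyme wells; top concentration of the series not given in the record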
#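 Fluorescence-quenching assay: 15 nM Sfp-PPTase preincubated 15 min at room temperature with compound, then 5 uM rhodamine-CoA and 12.5 uM BHQ-2-labelled YbbR peptide added. Fluorescence (ex 525/em 598 nm) read at start and after 30 min; difference gives rate.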
# CtBP-E1A inh: inhibitors of CtBP/E1A interaction. AlphaScreen GST-E1A/His-CtBP binding, 1536-well; active compounds read low; control for the full effect not named in the record. activity change, % (no concentration beside the values). 340,000 compounds, 0.49% hits. AID 651724; in the data active means activity change below about -65%; inconclusive means about -30% to -65%; inactive means above about -30%; also: % is scaled to controls: 0 for no effect and ±100 for the full control effect
#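 Protein mix (5X: 125 nM each GST-E1A, His-CtBP) was incubated with pinned compound 2 h at 37 deg C in dark, in 50 mM Tris pH 8.0 buffer with 300 mM NaCl. Glutathione donor and nickel acceptor beads followed; AlphaScreen signal read after 1 h.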
# * = called active by the depositor; ? = inconclusive; / = no result given; & = joins results of further samples; [ ] = remark or other dose. Random draw from the library; overall some 5.3% were active at least once.
SMILES,gsp ag,ClpP mod,TRPV1 potentiator,gsp antag,Menin MLL FP FL,Sfp inh,CtBP-E1A inh
CCN(CC)S(=O)(=O)c1ccc(C)c(NC(=O)COC(=O)[C@@H]2CCCN2C(=O)c2cccs2)c1,-32%,-1.3%,-7,-9%,-1.7,21%,/
CC1CCN(S(=O)(=O)c2cnc(Cl)c(Br)c2)CC1,21%,0.7%,-6,-10%,4.1,-2%,5
CC1CCN(S(=O)(=O)c2cc3c4c(c2)C(C)C(=O)N4CCC3)CC1 (configuration not stated),24%,-0.6%&-1.2%,8,1%,/,11%,0
CN1CCN(S(=O)(=O)c2csc(C(N)=O)c2)CC1,15%,-1.4%,-8,8%,/,25%,/
CCOC(=O)C1(CCOc2ccccc2)CCN(Cc2cnc(SC)nc2)CC1,-8%[15.4 µM],/,-5,-7%,-12,2%,3
O=C(CCc1nnc2ccc(NCc3ccccc3Cl)nn12)NCC1CCN(C2CCCC2)C1 (configuration not stated),28%,/,5,7%,-1.7,2%,-17
Cc1ccc(C(C)C)c(OCCCN(C)Cc2ccccc2)c1,-2%,2.4%,-8,9%,-1.6,-75%,-2
CCN(CC(=O)N(CC(C)C)c1c(N)n(CC(C)C)c(=O)[nH]c1=O)Cc1nc2ccccc2c(=O)[nH]1,-4%,0.6%,17,0%,2.6,-5%,1
CC(C)Oc1nnnn1-c1ccccc1,-45%[inhibitor],-1.2%,1,-2%,3.3,22%,6
COc1cccc(/C=C/C(=C2\C(=O)N(c3ccccc3)N=C2C)c2ccc(Br)cc2)c1OC,-16%,1.4%,/,10%,/,/,-5
O=S(=O)(NCc1ccncc1)c1ccc(Br)s1,?,-0.6%,?,-2%,2.4,4%,5
O=C(O)c1ccc2c(=O)n(-c3ccccc3F)c(=S)[nH]c2c1,-6%[15.4 µM],1.3%,14,11%,-1.5,2%,7
Cc1ccc(Nc2nc(N)nc(CSc3nnc(C)s3)n2)cc1,2%[15.4 µM],0.6%,5,11%,0.3,5%,-3
Cc1ccc(-c2noc(CCC(=O)NC3CCCc4ccccc43)n2)cc1 (configuration not stated),1%,-3.1%,0,-1%[15.4 µM],1.3,6%,2
Cc1ccc(C(=O)NCc2ccco2)c(C)c1,-3%[15.4 µM],-8.6%,-55,7%,0.5,13%,6
COc1cccc(NC(=O)C(=O)NCCC2CCCCN2S(=O)(=O)c2cccs2)c1 (configuration not stated),14%,-3.4%,4,0%,/,/,-15
COc1ccccc1CNC(=O)CCN1C(=O)COc2ccc(C)cc21,-26%,-1.7%,-8,6%,2.5,7%,2
CCOC(=O)Cc1nnc(NC(=O)CSc2nc3ccccc3[nH]2)s1,-17%[15.4 µM],/,9,-8%,5.7,-1%,-1
Cc1ccc(-n2c(SCC(N)=O)nc(O)cc2=O)cc1,37%,0.7%,6,-16%,?,1%,-18
Cc1nc(Nc2nc3c(c(=O)[nH]2)CCC3)nc2ccccc12,0%[15.4 µM],/,/,0%,/,/,5
CC1CCCCN1Cc1nc2c(c(=O)n(C)c(=O)n2C)n1CCc1ccccc1 (configuration not stated),-8%,-1.7%,2,-4%,1.9,10%,0
Nc1ccc(S(=O)(=O)Nc2ccc(Cl)nn2)cc1,5%,-0.8%,3,8%,-1.5,-3%&9%&25%,-7
CC(=O)Nc1ccc(OCC(O)CN2CCN(c3ccc(Cl)cc3)CC2)cc1 (configuration not stated),-4%,-0.6%,-6,2%,9.5,7%,0
CCCC#CCN1CCN(C23CC4CC(CC(C4)C2)C3)CC1,-1%,2.6%,13,5%,-0.9,7%,/
CC(C)c1ccc(NC2CCCN(C(=O)c3cccs3)C2)cc1 (configuration not stated),-1%,2.3%,10,?,-2.4,-4%,-14
OCCCn1c(C2CCCN2c2nc(-c3ccc(Cl)cc3)cs2)nc2cc(Cl)c(Cl)cc21 (configuration not stated),/,0.0%,/,-4%,/,/,20
C=CCCC(=O)NC1CC(C)(C)Cc2c1cnn2-c1cccc(F)c1 (configuration not stated),-6%,-4.1%,-13,-6%,-0.6,19%,8
Cc1c(Cl)cccc1NC(=O)NC1CCCCC1,7%,-0.3%,5,12%,1.3,11%,1
CC(=O)NCc1nnc2c3ccccc3c(-c3ccccc3)nn12,?,/,0,12%,2.2,11%,3
CCOC(=O)c1cc2sccc2n1CC(=O)Nc1ccc2c(c1)OCCO2,-11%,4.6%,/,9%,0.8,-6%,12
Cc1ccc(NC(=O)C2CCCN2C(=O)OCc2ccccc2)cc1F (configuration not stated),3%,-3.2%,7,-8%,/,-2%,/
CCCC(C(=O)NCc1ccc(OC)cc1)N(Cc1ccco1)C(=O)c1snc(C(N)=O)c1N (configuration not stated),-1%,-9.6%,1,-20%,2.6,-9%,2
CCOCCc1nnc(NC(=O)c2cccs2)s1,25%,1.5%,0,4%,1.9,28%,3
CSc1nsc(SC)c1C(=O)N1CCN(S(=O)(=O)c2ccc(C)cc2)C1C (configuration not stated),-21%,1.1%,5,-13%,0.8,-3%,-6
CCOC(=O)N(C)C[C@@H]1OCc2cnnn2CCCC(=O)N([C@@H](C)CO)C[C@@H]1C,-15%,1.1%,/,/,/,/,4
CC1(c2ccc(OC(F)F)cc2)NC(=O)N(CC(=O)N2CCN(C(=O)c3ccco3)CC2)C1=O (configuration not stated),-27%,-1.1%,0,8%,/,/,/
COc1ccc(/C=C/C(=O)Nc2cccc(S(=O)(=O)NC3=NCCCCC3)c2)c(OC)c1,-37%[inhibitor],?,9,-9%,/,/,?
CC(=O)NNC(=O)c1ccncc1,-47%[inhibitor],0.1%,?,7%,-2.3,12%,25
CCCc1cc(C(=O)N2CCCC(CO)(CCCc3ccccc3)C2)n(C)n1 (configuration not stated),10%[15.4 µM],-5.0%,-8,-8%,/,1%,-3
Cc1ccc(OCCC(=O)OCC(=O)Nc2ccc3c(c2)OCO3)cc1,6%[15.4 µM],/,-31,3%,/,/,1
Cc1onc(-c2c(Cl)cccc2Cl)c1C(=O)NNC(=O)c1c(-c2c(Cl)cccc2Cl)noc1C,11%[15.4 µM],-12%,?,-11%,3.6,8%,2
Cc1noc(C(=O)N2CCN(Cc3ccc4c(c3)OCO4)CC2)c1Cl,?,0.3%,9,5%,-4.5,10%,1
Cc1cccc(C)c1OCc1nnc(NC(=O)CSc2ccc(Cl)cc2)s1,-19%,1.5%,1,20%,2.0,1%,0
c1coc(-c2ccnc(-c3ccncc3)n2)c1,62%,-3.2%,3,4%,0.5,16%,-4
COc1ccc(C(=O)NCC(=O)N2CCN(c3ccc(Cl)cc3)CC2)cc1,3%,/,-19,6%,5.3,17%,5
Cc1nc(C)c(C(=O)OC(C)C(=O)Nc2ccc(F)cc2)s1 (configuration not stated),-3%,1.3%,-32,-4%,/,/,/
COc1ccc(CCNC(=O)c2ccc(N(C)S(=O)(=O)c3ccc(C)cc3)cc2)cc1OC,6%,0.7%,5,28µM*,-3.8,15%,5
O=C(NCCCN1CCOCC1)c1cc(S(=O)(=O)N2CCN(c3ccccc3)CC2)ccc1Cl,-7%[15.4 µM],/,5,6%,/,/,6
COc1cc(OC)c(C(=O)NNC(=O)CN(C)S(=O)(=O)c2ccc(Cl)cc2)cc1OC,-15%,-9.1%,-5,2%,/,/,0
COc1ccc(OC)c(CN2CCN(C(=O)CNC(=O)c3cc(C)cc(C)c3)CC2)c1,-39%,-2.6%,4,5%,/,/,-24
COc1cc(NC(=O)Cn2cnc(S(=O)(=O)N3CCCC3)c2)cc(OC)c1OC,1%,0.4%&1.4%,11,8%,/,14%,1
CC1(S(=O)(=O)O)CC(=O)c2ccccc2C1=O (configuration not stated),/,-4.1%,?,4%,-2.0,4%,-29
O=[N+]([O-])c1ccc(N/N=C\c2cccn2-c2ccccc2)nc1,-33%[inhibitor],-2.1%,-2,-10%,?,?,?
Cc1ccc(N(C(C)C(=O)N2CCN(Cc3ccccc3)CC2)S(C)(=O)=O)cc1 (configuration not stated),-3%[15.4 µM],-2.5%,20,0%,-11,15%,5
Cc1cccc(NC(=O)CSc2nnc(CNC(=O)c3ccc(S(=O)(=O)N(C)C)cc3)n2-c2ccc(F)cc2)c1,6%[15.4 µM],6.2%,-2,-16%,5.6,0%,6
CCOc1ccc(S(=O)(=O)NCCC(=O)N2CCN(c3ccccc3O)CC2)cc1,?,-0.6%,10,6%,/,/,2
CC(C)c1onc(C(=O)N2CCCCC2)c1[N+](=O)[O-],10%,-3.6%,3,9%,1.3,16%,-2
O=C(COC(=O)c1cccc(O)c1)Nc1ccc(S(=O)(=O)N2CCOCC2)cc1,-2%,-1.5%,-4,-7%,/,/,-15
CCn1cc(C2=NC(C(C)C)CO2)c2ccccc21 (configuration not stated),-38%,-20%,-8,5%,-0.5,19%,8
NC(=O)c1ccsc1NC(=O)COC(=O)c1ccccc1F,?,1.1%,2,18%,/,/,-26
# The results go on.
SMILES,gsp ag,ClpP mod,TRPV1 potentiator,gsp antag,Menin MLL FP FL,Sfp inh,CtBP-E1A inh
Cc1cccc(C)c1NC(=O)CN(C)CC(=O)Nc1cc(Cl)ccc1C#N,-1%,1.1%,-6,-2%,3.4,-6%,0
CN(C)c1ccc(/C=N\Nc2nc(-c3ccccc3)cc(=O)[nH]2)cc1,-36%[inhibitor],-0.4%,-5,7%,/,-3%,-8
Cn1c(=O)c2c(nc(CN3CCC(C(N)=O)CC3)n2Cc2c(Cl)cccc2Cl)n(C)c1=O,-60%[inhibitor],-0.7%,6,-14%,0.2,-10%,-23
OCCN(CCO)Cc1csc2ccccc12,19%,-1.8%,-6,-8%,1.5,-4%,0
CCC(C)[C@@H](CN(N=O)[C@@H](Cc1ccccc1)CN(C)N=O)N(CCc1ccccc1)N=O (some centres not stated),?,0.4%,25,-17%,0.2,15%,-5
COP(=O)(OC)c1nc(-c2cccc3ccccc23)oc1N1CCCCC1,?,4.6%,-37,-16%,-3.4,-17%,/

# Source: PubChem BioAssay
